# ALR H2O2 inh: human ALR oxidase inhibition via reduced H2O2; P55789; purified ALR, DTT oxidation, H2O2 HRP-luminol luminescence; inhibition, % (no concentration beside the values); 3.8% of 290,000 active;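 active = mean and each replicate at 75% or more; inconclusive = only one of the two met; inactive = neither met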;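 note: stock transfer was 7.5 nL into about 7.5 µL; 0% = neutral wells and 100% = wells with inactivated enzyme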
# Target sequence (P55789 whole entry, looked up): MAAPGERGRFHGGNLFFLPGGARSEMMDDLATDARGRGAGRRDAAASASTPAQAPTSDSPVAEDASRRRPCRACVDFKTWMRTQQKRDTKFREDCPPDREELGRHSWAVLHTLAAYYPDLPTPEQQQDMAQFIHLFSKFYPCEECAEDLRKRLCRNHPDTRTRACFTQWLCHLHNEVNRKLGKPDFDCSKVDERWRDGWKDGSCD
# Beta2AR agonist: human beta-2 adrenergic receptor agonism by FAP; P07550; Am2.2-beta2AR cells, FAP receptor internalization, flow cytometry; reference of the scale not given here; response, % (test concentration not listed); 0.43% of 340,000 active;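 active = response above a set limit, near 3 SD of response in nonfluorescent compounds, cut at about 42% in these data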;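 note: stock transfer was 100 nL into about 11 µL; a reference agonist was the positive control; negative values mostly stem from fluorescent compounds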
# Ecoli growth: blocks Escherichia coli growth | OD600, 23 h; stronger effect = lower value | OD600 absorbance (no concentration beside the values) | 0.21% of 330,000 active | AID 1053175;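 active = OD600 absorbance below the run mean of sample wells minus 3.6 SD, in any replicate, cut at about 0.56 in these data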;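 note: stock transfer was 300 nL into about 60 µL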
# LANA-H2A inh: blocks KSHV LANA binding to histone H2A/H2B. Q9QR71. inhibition, % (concentration not given with the values). 0.6% of 320,000 active. cell-free LANA-H2A/H2B peptide, fluorescence polarization; in the data active = inhibition mostly above about 10%, no sharp cut-off; inactive = mostly below about 6.7%;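 note: stock transfer was 7.5 nL into about 10 µL; 0% = median of vehicle wells and 100% = median of positive control wells; one replicate is shown; the record names a cut of 25% in any replicate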
# UCH37 inh: human UCH37 deubiquitinating enzyme inhibition; Q9Y5K5; purified proteasome/UCH37, Ub-AMC cleavage fluorescence; inhibition, % (test concentration not listed); 0.33% of 330,000 active; AID 588478;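 active = mean of two replicates above 20%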;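 note: 0% = compound-free wells with enzyme and 100% = wells lacking proteasome; stock transfer was 100 nL into about 20 µL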
#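 Material: Human UCH37 enzyme supplied as purified proteasome complex | Schedule: 30 min compound-proteasome preincubation then 25 min substrate reaction, room temperature | Detection: AMC fluorescence from Ub-AMC cleavage, excitation 355 nm, emission 460 nm | Benchmarks: Wells without proteasome as full block, compound-free enzyme plus substrate as uninhibited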
# FGF22 binding: shifts melting point of recombinant human FGF22; Q9HCT0; AID 651658; recombinant FGF22 thermal shift, SYPRO orange fluorescence; percent of sucrose octasulfate shift, DMSO zero; calls only at 9.99 µM; 1.5% of 340,000 active;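 active = melting point raised past a set limit in the mean and every replicate; inconclusive = no clear call; three in four hits are not shown here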
# Target sequence (Q9HCT0 whole entry, looked up): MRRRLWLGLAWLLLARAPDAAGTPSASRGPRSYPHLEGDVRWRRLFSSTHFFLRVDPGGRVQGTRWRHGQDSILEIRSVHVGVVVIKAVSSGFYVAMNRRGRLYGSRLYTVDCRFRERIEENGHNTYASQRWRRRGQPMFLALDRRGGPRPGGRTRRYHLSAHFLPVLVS
# HNF4A DNA FP: change in binding of human HNF4 alpha to DNA; P41235; HNF4a-FITC DNA binding, fluorescence polarization, 1 h; AID 1224865; activity change, % at 10 µM; 0.3% of 360,000 active; in the data active = activity change above about 30%, passing the limit was not always enough;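 note: controls were the assay level and a saturating level of protein; the project sought stronger binding though the title names inhibitors; some compounds called inactive have numbers as strong as hits; positive values seem to mean higher polarization but the record does not say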
# Target sequence (P41235 whole entry, looked up): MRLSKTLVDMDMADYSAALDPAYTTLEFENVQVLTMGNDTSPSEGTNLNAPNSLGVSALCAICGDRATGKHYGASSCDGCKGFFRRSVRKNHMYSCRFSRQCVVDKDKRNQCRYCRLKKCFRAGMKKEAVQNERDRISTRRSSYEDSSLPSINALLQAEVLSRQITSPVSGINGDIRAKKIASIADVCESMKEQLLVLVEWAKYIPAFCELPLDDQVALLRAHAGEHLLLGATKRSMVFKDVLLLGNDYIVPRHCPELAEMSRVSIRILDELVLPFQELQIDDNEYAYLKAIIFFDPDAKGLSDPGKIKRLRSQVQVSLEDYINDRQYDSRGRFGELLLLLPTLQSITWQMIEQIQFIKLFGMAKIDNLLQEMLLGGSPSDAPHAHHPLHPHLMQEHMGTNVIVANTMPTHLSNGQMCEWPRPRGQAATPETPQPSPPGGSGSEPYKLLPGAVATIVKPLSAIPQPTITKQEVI
# * marks the source's active call; other numbers are inactive results; i = inactive; ? = inconclusive; . = not tested or not shown; + = active, no number; ! = not active in a repeat. Some of the compounds tested (hit frequency here may not be typical).
SMILES,ALR H2O2 inh,Beta2AR agonist,Ecoli growth,LANA-H2A inh,UCH37 inh,FGF22 binding,HNF4A DNA FP
O=C(Nc1ccc(F)cc1)Nc1ccc(N2CCCC2)c(S(=O)(=O)Nc2ccccc2Cl)c1,-17.3,32.1,0.693,10.9,4.3,i,5.6
C[C@H](CO)N1C[C@H](C)[C@@H](CN(C)C(=O)Nc2ccc(C(F)(F)F)cc2)Oc2ccc(NC(=O)Nc3ccccc3)cc2C1=O,0.9,3.5,0.706,143.2*,1.2,+!,2.3
O=C(CCC(=O)Nc1ccc(F)cc1)N/N=C/c1ccc(F)cc1,-4.3,-7.0,.,-0.5,.,i,4.9
Cc1ccc(OCC(=O)Nc2ccc(N3CCN(S(C)(=O)=O)CC3)cc2)c(C)c1,1.2,-5.5,0.728,2.5,0.4,i,-1.1
C=CCNc1nc2ccccc2nc1NS(=O)(=O)c1ccc(Br)cc1,27.8,-16.7,0.661,-5.2,-41.6,i,1.0
COc1ccc(CCNS(=O)(=O)c2ccc(Br)cc2)cc1,-3.6,-13.3,0.684,-5.5,1.8,i,0.8
C=CC[C@H](CC(=O)NCCO)C(=O)N[C@H](C)COC(=O)[C@@H](CC=C)Cc1ccc(F)cc1,3.1,-1.2,.,13.7*,-0.9,i,-5.0
N/C(=N\S(=O)(=O)c1cc(C(F)(F)F)cc(C(F)(F)F)c1)c1ccccc1,-9.7,-7.1,0.685,3.7,3.0,i,-1.1
COc1ccccc1NC(=O)CSc1nc2c(oc3ccccc32)c(=O)n1C,-10.7,5.2,0.716,3.0,3.5,i,1.8
Clc1nc(NCCc2ccccc2)c2cn[nH]c2n1,.,0.8,0.677,.,1.9,i,0.4
OCc1nc2c(ccc3ccccc32)[nH]1,-16.5,11.2,0.673,1.4,2.7,i,-0.5
NNC(=O)c1sc2cc(C(F)(F)F)cnc2c1-c1cccs1,16.6,1.4,0.657,3.2,-3.1,i,3.3
Oc1ccc2ccccc2c1CNn1cnnc1,-19.5,0.5,0.672,3.1,-18.0,.,-0.5
O[Si](CCCN1CCCCC1)(c1ccc(F)cc1)C1CCCCC1 (stereo unspecified),.,17.4,0.669,-5.1,1.4,i,2.9
O=S(=O)(c1cccs1)N1CCN(c2ccc(O)cc2)CC1,.,1.1,0.698,1.4,0.0,i,-2.3
CCN(C(=O)c1cc2c(=O)n3cccc(C)c3nc2n1CCCOC)C1CCCCC1,-0.4,14.6,0.706,0.5,-329.4,i,0.4
CCOC(=O)c1cnc2c(Cl)cc(Cl)cc2c1NCCCN1CCOCC1,-0.3,5.5,0.682,-2.8,4.2,i,0.8
CCOC(=O)c1ccc(N2C(=O)C(CC(N)=O)N(CCc3ccc(OC)c(OC)c3)C2=S)cc1 (stereo unspecified),.,1.0,0.671,-0.9,-2.4,i,-2.6
O=C(COC(=O)Cn1nnc(-c2ccccc2)n1)Nc1cc(F)ccc1F,-1.4,-3.8,0.688,-3.9,-0.1,i,-1.7
CCOC(=O)c1ccc(NCc2ccc(N(C)C)cc2)cc1,18.8,1.3,0.679,-3.8,-5.7,.,-1.8
COc1ccc2oc(=O)c(C(=O)N3CCN(c4ccccc4)CC3)cc2c1,22.6,3.8,0.689,-18.6,-6.7,i,-0.1
CCCN(CC(=O)Nc1ccccc1C)C(=O)CCNC(=O)c1ccccc1Cl,1.0,1.1,0.662,5.0,1.5,i,2.3
CC1(C)NC(=O)N(CC(O)CN2CCCC2)C1=O (stereo unspecified),.,6.2,0.697,-0.7,0.4,.,-1.8
CCCCC(=O)Nc1ccc(NCc2ccc(C)s2)cc1,97.1*,1.7,0.609,2.1,3.1,i,-0.8
CCCn1c(SCC(=O)NCc2ccco2)nnc1C(C)C,-1.6,1.3,0.724,-1.3,1.7,.,-2.4

# The list goes on.
SMILES,ALR H2O2 inh,Beta2AR agonist,Ecoli growth,LANA-H2A inh,UCH37 inh,FGF22 binding,HNF4A DNA FP
O=C(O)c1ccc2c(c1)S(=O)(=O)c1ccccc1C2=O,-19.4,21.5,0.629,-0.6,3.3,.,-1.1
Cc1ccc(-n2c(SCC(=O)NCc3ccco3)nnc2-c2cccnc2)c(C)c1,-4.7,0.5,0.64,-1.5,-0.8,.,-2.9
Cc1ccc(C)c(N(C(=O)Cn2nnc3ccccc32)C(C(=O)NC(C)(C)C)c2ccsc2)c1 (stereo unspecified),0.4,-0.9,0.735,-5.0,0.8,.,1.2
COc1ccc(OC)c(/C=C/C(=O)N(C)CC(=O)Nc2ccc(N3CCOCC3)cc2)c1,51.3,5.3,0.674,1.6,-102.0,i,-2.9
CCOc1cccc(C(=O)N2CCCCC2c2cccnc2)c1 (stereo unspecified),-10.6,2.9,0.676,2.8,4.7,.,-1.0
CC1CCN(CC(=O)Nc2ccc(Br)cc2[N+](=O)[O-])CC1,-22.2,-4.0,0.708,-4.4,0.1,i,-2.2
COCCNC(=O)CN1C(=O)c2cccc3cccc1c23,-22.9,9.7,0.649,1.9,-23.2,i,-0.2
CC(=O)NC(Cc1ccc(F)c(F)c1)C(=O)NC1CCN(c2nnnn2-c2ccccc2)CC1 (stereo unspecified),8.2,-0.8,0.658,-4.4,1.5,i,2.0
CC(=O)n1nc(-c2cccnc2)nc1N,19.7,6.6,0.698,-4.4,1.6,.,-1.7
COc1ccc(OC)c2sc(NC(=O)CCSc3ccccc3)nc12,-0.8,-1.1,0.728,-1.4,-0.8,i,-6.2
CC(NS(=O)(=O)c1ccc(Br)cc1)C(=O)NCC1CCCO1 (stereo unspecified),.,4.7,0.697,4.2,2.6,i,0.5
COc1ccc(C(C)C)cc1S(=O)(=O)Nc1ncn[nH]1,36.8,1.6,0.7,-1.8,5.1,i,-1.7
COc1ccc(C(=O)COC(=O)c2ccc3c(c2)NC(=O)CS3)c(OC)c1,.,16.4,0.591,.,3.2,i,6.4
Nn1c(SCC(=O)Nc2cccnc2Cl)nnc1-c1ccccc1,?,7.3,0.677,5.9,0.6,.,4.5
CC(=O)NCCCc1nc2ccccc2n1Cc1ccccc1C,-3.0,-2.1,0.659,-2.5,1.6,.,2.3
COc1cc(-n2ccnc2SC)c(Cl)cc1Cl,-2.1,-8.9,0.781,-6.0,3.1,.,-2.5
OCC1(Cc2ccc(F)cc2F)CCCN(CCCc2ccccc2)C1 (stereo unspecified),.,9.9,0.625,-9.4,4.3,i,5.7
Cc1cc(C)nc(N/N=C/c2ccccc2OCC(=O)O)n1,39.3,0.8,.,-3.7,.,i,0.9
CS(=O)(=O)N(CC(=O)N1CCCCCC1)c1cccc(F)c1,-24.0,11.2,0.663,0.2,-1.4,i,2.4
Cc1ccc(NC(=O)CCNS(=O)(=O)c2ccc3c(c2)CCC(=O)N3)cc1,-2.8,1.1,0.695,-1.7,3.2,i,-1.1
CC1CCCCC1NC(=O)CCn1c(=O)sc2ccccc21 (stereo unspecified),3.7,-8.2,0.692,7.4,1.0,i,3.2
Cc1cccc(NC(=O)C2CC(=O)n3ncnc3N2)c1 (stereo unspecified),-8.3,9.4,0.666,1.3,5.8,i,-0.8
CCCCN(C(=S)Nc1cccc(C)c1C)c1c(N)n(CCC)c(=O)[nH]c1=O,-2.0,3.7,0.707,6.3,0.5,i,0.4
COc1cccc(NC(=O)CN(C)C(=O)CNC(=O)c2ccc(Oc3ccccc3)cc2)c1,0.0,0.4,0.69,-1.1,5.1,i,-3.8
CCOc1ccc(CN(C)CC(=O)Nc2ccccc2C(=O)NC2CC2)cc1,.,-0.7,0.703,.,0.7,i,-5.1

# More compounds follow:
SMILES,ALR H2O2 inh,Beta2AR agonist,Ecoli growth,LANA-H2A inh,UCH37 inh,FGF22 binding,HNF4A DNA FP
O=C(Nc1ccccc1)c1ccc(=O)[nH]n1,-2.9,-7.8,0.628,-4.7,2.9,i,-1.1
Cc1cc(C)cc(NC(=O)C2C3C=CC4(O3)C2C(=O)N(CCCN(C)C)C4C(=O)NC2CCCC(C)C2C)c1 (stereo unspecified),3.0,13.0,0.651,0.7,4.3,i,2.2
Nc1cc(Br)c(N)c(Br)c1,58.2,2.4,0.648,3.2,2.9,.,-0.2
Cc1cccc(C(=O)Nc2nnc(Cc3ccccc3)s2)c1,-0.6,-4.4,0.683,1.4,0.5,i,2.5
Cc1csc(NC(=O)CSc2nnc(-c3ccoc3C)n2Cc2ccco2)n1,13.1,-5.2,0.708,i,2.2,.,0.4
Cc1noc(C)c1COC(=O)c1cccnc1Cl,1.8,-4.1,0.696,-0.6,1.9,i,-0.7
O=C(NNC(=O)c1cccc2ccccc12)c1ccco1,-3.5,0.9,0.664,5.4,2.6,.,-1.6
COc1cc(CNn2cn[nH]c2=S)cc(Cl)c1OCc1ccc(F)cc1,97.4*,2.7,0.735,7.1,4.7,i,1.0
CCN(CC(=O)Nc1ccc(S(=O)(=O)N2CCCC2)cc1)CC(=O)Nc1ccccc1C(F)(F)F,-2.3,8.6,0.707,-2.3,0.0,i,-2.5
Clc1ccc(COc2ccccc2CNCc2cccnc2)cc1,-5.2,3.1,0.707,2.9,3.7,i,3.4
Cc1noc(C)c1S(=O)(=O)N(CC(=O)NCc1ccccc1)c1ccc(C(C)C)cc1,-15.7,6.9,0.682,3.2,1.1,i,-1.5
COc1cc(/C=C(/C#N)c2ccccc2F)ccc1OCc1ccccc1,-3.7,1.1,0.721,0.2,2.4,i,-0.1
Cc1ccc(S(=O)(=O)NCC(=O)OCC(=O)c2cccs2)cc1,-0.3,6.2,0.747,-5.5,4.4,.,0.0
Cc1c(N=N/C(C(=O)Nc2ccccc2)=C(/O)c2ccccc2)c(=O)n(-c2ccccc2)n1C,-13.5,-3.8,0.686,-2.0,5.0,i,21.5
COc1ccc(C)cc1C(=O)CCC(=O)Nc1ccccc1N1CCOCC1,64.7,4.9,0.679,-0.4,3.4,.,-3.1
Cc1ccc(Sc2cc(C(F)(F)F)nc(N(C)C)n2)cc1,-1.6,4.3,0.659,-1.5,-5.9,.,0.3
COc1ccc(CCNC(=O)CC(c2ccccc2)c2cc(C)ccc2O)cc1OC (stereo unspecified),13.6,8.7,0.683,4.7,1.8,.,-0.5
Cc1ccccc1OCC(=O)NCCN(C)C,-1.1,4.1,0.718,3.7,1.2,.,-1.7
Cc1sc(NC(=O)C2CSC3(C)CCC(=O)N23)nc1-c1ccccc1 (stereo unspecified),-0.2,-3.0,0.657,-0.5,-1.2,i,6.0
COc1ccc(/C=N/Nc2ncnc3c2[nH]c2ccccc23)c(OC)c1OC,-20.7,-0.4,.,7.2,.,.,0.6
CCN(CC)S(=O)(=O)c1ccc(C(=O)NNC2=NS(=O)(=O)c3ccccc32)cc1,2.0,6.4,0.673,1.6,11.7,i,-1.1
CCc1ccccc1NC(=O)CN1CCN(CC(=O)NCc2ccc(Cl)cc2)CC1,.,-0.7,0.688,0.9,-2.6,i,1.8
C=CCNc1nc(Cl)nc(Nc2ccc(OC)cc2)n1,-4.0,-3.7,0.736,0.2,-0.4,.,0.7
CCn1c(SCC(=O)Nc2nccs2)nnc1-c1ccncc1,-12.3,4.7,0.73,-4.1,4.2,.,0.5
COc1ccc(S(=O)(=O)N(C)CC(=O)NCCN2CCOCC2)cc1C,-2.8,2.5,0.718,-1.2,3.0,i,-1.1
Cc1cnc2cc(Cl)c(Cl)cc2n1,.,-4.9,0.709,-4.7,2.5,.,4.4
CCOC(=O)CN1C(=O)N[C@@H](c2cccc(F)c2)C(C(C)=O)=C1C,-1.8,3.4,.,-5.2,1.4,i,3.1
COCC(C)NC(=S)NC(=O)c1cc(S(=O)(=O)N2CCOCC2)ccc1C (stereo unspecified),15.5,-3.3,.,-3.3,.,i,1.7
CCOc1ccc(NC(=O)CCC(=O)NNC(=O)c2ccccc2Cl)cc1,-13.6,-6.5,0.713,-2.0,2.7,i,2.2
O=C(CSc1nc2ccccc2c(=O)n1-c1ccc(F)cc1)Nc1ccc(N2CCOCC2)cc1,-7.1,9.5,0.696,4.8,3.7,i,-1.4
